Ba CapD inh: blocks the Bacillus anthracis CapD enzyme. purified CapD enzyme, fluorescence intensity read-out; stronger effect = lower value; some hits fall short of the stated cut. z-score (test concentration not listed). 0.23% of 140,000 active;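 active = z-score under -4 in either of two replicates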;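 also: stock transfer was 100 nL into about 40 µL; score is relative to mean and spread of the plate; one replicate is shown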
AID504770: E. coli YBA685 growth inhibition, screen for V. cholerae RctB inhibitors | E. coli YBA685 rctB-dependent plasmid, OD600 growth, 3 h; stronger effect = lower value | z-score (concentration not given with the values) | 0.27% of 130,000 active;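 active = z-score under -2 on both plates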;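 also: wells of about 30 µL received 100 nL stock; score is relative to mean and SD of the test wells; the first replicate is given; strong numbers were not always called active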
An asterisk follows results filed as active; / = no result given.

A first look:
mol	Ba CapD inh	AID504770
COc1cc(OC)cc(N2C(=O)Cc3c2nc2c4c(nc(N5CCCC5)c(C#N)c34)N=C(C)N2)c1	/	0.15
COc1ccc(CSC(=N)N)cc1Br	-0.265	0
O=C(COC(=O)C1CC(=O)N(CCc2ccccc2)C1)NC1CC1 (centres undefined)	/	0.65
C#CCN1C(=O)S/C(=C/c2ccccc2)C1=O	-0.32	-0.4

This part in full, from the first entry:
mol	Ba CapD inh	AID504770
COc1cc(OC)cc(N2C(=O)Cc3c2nc2c4c(nc(N5CCCC5)c(C#N)c34)N=C(C)N2)c1	/	0.15
COc1ccc(CSC(=N)N)cc1Br	-0.265	0
O=C(COC(=O)C1CC(=O)N(CCc2ccccc2)C1)NC1CC1 (centres undefined)	/	0.65
C#CCN1C(=O)S/C(=C/c2ccccc2)C1=O	-0.32	-0.4
N#Cc1ccccc1S(=O)(=O)N1CCN(c2nc(-c3ccccc3)nc3ccccc23)CC1	/	-0.35
Cn1c(/N=C/c2cc(C(C)(C)C)c(O)c(C(C)(C)C)c2)nc2ccccc21	0.545	-0.2
COc1ccc(NC(=O)c2ccc3c(-n4ccnc4)c4c(nc3c2)CCCC4)cc1OC	-1.15	-1.95
O=C1c2ccccc2C(=O)N1Cc1cccc(F)c1	/	-0.9
NNC(=O)c1nc(-c2ccccc2)no1	9.11	0.2
Cc1cc(Br)ccc1NC(=O)C1c2ccccc2C(=O)N2CCc3ccccc3C12 (centres undefined)	-0.115	0.45
Cc1cc(C(F)(F)F)n2nc(C(C)C)cc2n1	0.265	0.5
Cc1cc2c(cc1NC(=O)CCc1ccccc1)n(C)c(=O)c(=O)n2C	0.285	-0.05

The listing continues:
mol	Ba CapD inh	AID504770
CCOC(=O)CSc1nc2ccccc2c2nc3ccccc3n12	-0.47	/
CNC(=O)Cn1c2cc(OC)c(OC)cc2c2nc(=O)cc(C)n21	69.7	1
NS(=O)(=O)c1cc(Cl)cc(Cl)c1	0.325	/
Cc1cc(N2CCN(C)CC2)nc2ccc(NC(=S)N(C)C3CCCCC3)cc12	4.54	0.4
COc1ccc(C(=O)c2nocc2C(=O)c2cccs2)cc1	-0.425	-0.85
CCOC(=O)c1cnc2c(ccc3ccccc32)c1Nc1ccc(C(=O)OC)cc1	0.365	/
Cc1ccccc1NC(=O)C1C2CCCCC21 (centres undefined)	/	-0.25
Cc1nn(-c2ccccc2)c(C)c1P(C)(=O)c1ccccc1 (centres undefined)	/	2.35
CC(=O)N(C)CC(=O)Nc1cccc2ccccc12	/	0.85
Cc1ccc(SCC(=O)NC(C)(C)C)cc1	-0.025	-0.55
Nc1nc2ccc(CCC(=O)O)cc2s1	/	-0.55
COc1ccccc1Cn1[nH]nnc1=S	-0.805	1.3

Next part:
mol	Ba CapD inh	AID504770
Nc1nnc(N2CCCCC2)s1	-0.375	-0.95
COCCN=c1scc(-c2ccc(C)c(C)c2)n1/N=C(\C)c1ccc(-n2ccnc2)cc1	/	0.3
COC(OC)c1ccc2c(N)c(C#N)sc2n1	0.145	-1.75
CN(C)C(=O)CSc1nnc(N)s1	0.25	0.45
CS(=O)(=O)c1ccc(CCNC(=O)COCc2cc3cccc4c3n(c2=O)CCC4)cc1	5.96	/
CCc1cc2c[n+](C3CCCCC3)sc2s1	-0.145	-2.45
Cc1ccc(S(=O)(=O)N2CN(CC3CCCO3)c3nc4ccccc4nc32)cc1C (centres undefined)	/	-0.35
CC(=O)Nc1cccc(OC(=O)N(C)C)c1	0.605	-1.1
COc1ccc(S(=O)(=O)N(Cc2nc(-c3ccc(OC)c(OC)c3)no2)C(C)C)cc1	/	0.45
COc1ccc(NC(=O)c2ccc(-c3nc(COc4ccccc4)c(C)o3)cc2)c(OC)c1	-1.85	0.3
Cc1ccccc1-c1noc(COC(=O)c2ccc(C#N)cc2)n1	/	0.5
O=C(O)c1ccc(O)c(Br)c1	/	0.45

Carrying on.
mol	Ba CapD inh	AID504770
Cc1cc(/C=N/N=C2\C(=O)Nc3ccccc32)c(C)n1CC(C)C	/	0.8
O=c1nc2n(-c3ccc(Cl)c(Cl)c3)c3cccc(Cl)c3cc-2c(=O)[nH]1	-0.355	/
CC(=O)N1CCC(N(C(=O)COc2ccccc2C(=O)O)C2CC2)CC1	-0.565	/
COC(=O)c1cc(C)sc1NC(=S)Nc1cnn(C)c1C(N)=O	-0.655	-0.95
Cc1ccc(-c2nnc3ccc4c(C(F)(F)F)cc(C(F)(F)F)nc4n23)cc1	0.68	/
COc1ccc(NC(=S)NC2CCCCC2)cn1	/	0.65
O=C(Nc1ccc(CN2CCS(=O)(=O)CC2)cc1)c1ccccc1	0.22	1.35
CCn1cc(-c2cc(C(=O)O)no2)cn1	/	0.4
Cc1ccc(C2(c3ccc(C)o3)CCCCC2)o1	/	-0.55
O=C(O)CCSc1nc(-c2ccccc2)cc(=O)[nH]1	/	2.25
O=C(NC1C(=O)NN(c2ccccc2)C1c1ccc(Cl)cc1)c1ccco1 (centres undefined)	/	-1
CCn1nc(C(=O)OC)c2ccccc2c1=O	/	-0.1

(list continues)
mol	Ba CapD inh	AID504770
CCn1c(SCC(=O)N2CCCCC2)nnc1-c1ccc(S(=O)(=O)N2CCCC2)cc1	/	2.25
COc1ccc(Cl)cc1N/C=C(/C#N)c1nc2ccccc2n1C	/	-0.65
C=C(C)Cn1c(=S)[nH]c2ccccc2c1=O	-0.105	-0.8
N#CCn1c(CSc2nnc(COc3ccccc3Cl)n2C2CC2)nc2ccccc2c1=O	/	-0.05
O=C(CSc1nnc(-c2ccco2)o1)N1CCCc2ccccc21	0.945	-0.35
CCOC(=O)c1cnn(-c2nc(C(F)(F)F)cs2)c1C(F)(F)F	0.15	/
Cn1c2ccccc2c2cnn(CC(=O)NCCN3CCCCCC3)c(=O)c21	8.07	-1.05
O=C(NCCc1ccccc1)c1ccc2c(c1)NC(=O)C1CCCN21 (centres undefined)	-0.48	-0.55
COc1ccc2[nH]c3c(=O)n(Cc4ccc(C(=O)NCCc5ccc(C)cc5)cc4)c(=S)[nH]c3c2c1	-0.685	-0.3
CCOC(=O)c1sc(NC(=O)C(CC)Sc2nnc3c4ccccc4n(CC)c3n2)nc1C (centres undefined)	-0.075	/
COc1ccc(Oc2c(C(F)(F)F)oc3c(CN4CCCC4)c(O)ccc3c2=O)cc1	-0.335	/
CCC(=O)N1CCc2cc(S(=O)(=O)NCC(OC)OC)ccc21	0.03	-0.9

Continued.
mol	Ba CapD inh	AID504770
CC(O)CNc1cc(=O)oc2ccccc12 (centres undefined)	0.265	0.3
CCOc1ccccc1C(=O)NC1CCNCC1	/	-0.15
CCOc1ccc(C(=O)CSc2nnc(CC)n2N)cc1	-1.17	-0.8
Cc1c(C)n(C(=O)CSc2nc3ccccc3s2)c2ccccc12	1.25	-0.25
O=C1CC(c2cccs2)CC(O)=C1C=Nc1ccccc1Cl (centres undefined)	0.38	0.35
COC(=O)/C(C(C)=N)=C(\O)CSc1nnnn1-c1ccc(Cl)cc1	/	-0.75
COc1ccc2c(c1)CC/C(=C/c1cccc(O)c1)C2=O	/	1.5
CCOc1cc(CO)cc(Cl)c1OCC(=O)Nc1ccccc1OC	-0.34	-0.15
Fc1ccc(NC(=S)N2CCN=C2Nc2ccc(F)cc2)cc1	-0.495	-0.5
O=C1C2C(C(=O)N1Cc1cccnc1)C1(Br)c3ccccc3C2(Br)c2ccccc21 (centres undefined)	-0.27	/
Cc1nn(C)c(C)c1N1C(=O)c2cccc3c(Br)ccc(c23)C1=O	/	-0.3
O=C(NCc1ccco1)c1ccc2c(=O)n(CC3CCCO3)c(SCc3csc4ccc(Cl)cc34)nc2c1 (centres undefined)	0.735	/

Continuation:
mol	Ba CapD inh	AID504770
Cc1ccc(C)c(N2CCN(S(=O)(=O)c3cccc4nsnc34)CC2)c1	-0.1	/
Cc1cccc(N2C(=O)CSC(C)C2=O)c1 (centres undefined)	0.175	0.1
CCOc1ccccc1NC(=O)CCS(=O)(=O)c1ccc2c(c1)CCN2C(C)=O	-0.3	1.35
CN(C)c1ccc(/C=N/NC(=O)c2[nH]c3ccccc3c2-c2ccccc2)cc1	1.09	/
CCCSC1=C(C#N)C(c2cccs2)CC(=O)N1 (centres undefined)	-0.32	-0.8
N#CC1=C(N)OC(c2ccccc2)=C(C(=O)c2ccccc2)C1c1ccccc1Cl (centres undefined)	-0.48	/
CCCCNC(=S)Nc1cccc(OC)c1	0.51	/
CC1CC(C)(C)NC(=S)N1CC(=O)Nc1ccc(Cl)cc1 (centres undefined)	-0.065	-0.55
Cc1ccc(-c2csc(N=C(N)N)n2)c(C)c1	0.14	/
C=CCNc1sc(N)c(C#N)c1C(=O)c1ccc(Br)s1	-1.25	2.05
O=C(Nc1ccc(Cl)cc1)OCc1ccc(Cl)nc1	-0.66	1.55
CC(=O)O/N=C(\C(=N/OC(C)=O)c1ccccc1)c1ccccc1	-1.25	/

Continuation.
mol	Ba CapD inh	AID504770
O=C(NC1CCCC1)c1ccc(Nc2nc3ccccc3n3nnnc23)cc1	6.06	0.3
CCSc1nnc(NC(=O)C(CC)Sc2ccc(Cl)cc2)s1 (centres undefined)	-0.49	-0.3
CC1CCCCN1c1nnc(NC(=O)NCc2ccccc2)s1 (centres undefined)	0.025	0.1
Cc1ccc(C2CC(=O)Nc3c2ccc2ccccc32)cc1 (centres undefined)	-1.19	/
CSc1nnc(C2CCCN2CC(=O)NC(c2ccccc2)c2ccccc2)n1C (centres undefined)	/	-0.9
CCN(CC)C(=O)Cn1cc(/C=C2/C(=O)N(C)c3ccccc32)c2ccccc21	0.695	0.4
CCOc1ccc(C(=O)C(C)OC(=O)c2cccnc2N2CCCC2)cc1 (centres undefined)	/	0.95
S=c1sc2ccccc2n1Cc1ccccc1	-1.51	0.85
CN(C(=O)c1ccc(COc2ccccc2Cl)o1)c1ccccc1	0.025	-0.55
CCOC(=O)Nc1cccc(O)c1	0.645	0.65
CCOC(=O)C1CCCN(C2=NC(=O)/C(=C/c3ccc(OC)c(OC)c3)S2)C1 (centres undefined)	1.09	-0.45
CCOc1ccc(N=CC23c4ccccc4C(c4ccccc42)C2C(=O)N(c4ccc(OCC)cc4)C(=O)C23)cc1 (centres undefined)	0.055	/

The list continues.
mol	Ba CapD inh	AID504770
CN(C)c1ccc(/C=C2/SC(=O)N(CNc3ccccc3Br)C2=O)cc1	0.335	/
Cc1ccccc1/C=C(\C#N)C(=O)OC(C)(C)C	0.235	-0.2
CN1CCC(N(C)Cn2ncn(-c3ccccc3)c2=S)CC1	/	0.85
CC1(C)C2CCC1(C)C(NC(=O)c1ccc(Cl)cc1Cl)C2 (centres undefined)	-0.03	/
CCOC(=O)Cn1cnc2sc(C)c(C)c2c1=O	/	-0.75
Cc1nc(NS(=O)(=O)c2ccccc2)sc1NC(=O)Nn1cnnc1	-0.66	0.15
O=C(Nc1ccc(Cl)cc1)NC(Cc1ccccc1)C(=O)O (centres undefined)	-0.205	-0.35
CCOC(=O)N1CCN(Cn2nnc3ccccc3c2=O)CC1	/	0.35
Cc1cccc(NC(=O)c2ccc(N3CC4CC(C3)c3cccc(=O)n3C4)c(NC(=O)c3ccc(Br)o3)c2)n1 (centres undefined)	0.66	/
O=C(NCC(c1cccnc1)N1CCN(c2ccccc2)CC1)c1ccccc1 (centres undefined)	0.035	-1
CNC(=O)c1cc(I)c(OC)c(OC)c1	-0.06	0.05
O=C(OCc1ccc(Cl)cc1Cl)C1CCC1	0.465	0.35

Whole records, looked up by structure. Values in the order: Ba CapD inh | AID504770
Results for `CC(=O)O/N=C(\C(=N/OC(C)=O)c1ccccc1)c1ccccc1` → -1.25 | /
Results for `O=C1C2C(C(=O)N1Cc1cccnc1)C1(Br)c3ccccc3C2(Br)c2ccccc21` (centres undefined) → -0.27 | /
Results for `CCOc1ccc(C(=O)CSc2nnc(CC)n2N)cc1` → -1.17 | -0.8

More results follow:
mol	Ba CapD inh	AID504770
O=C(/C=C/c1ccc(OCCCF)cc1)NCc1ccc(Cl)c(Cl)c1	-0.25	/
CC1(C)CN(c2ccc(I)cc2)C1=O	-0.005	-1.75
CC1(C)CC(=O)C2=C(C1)OC1=C(C(=O)CC(C)(C)C1)C2c1cccc(OC(=O)c2ccccc2F)c1	-0.545	/
CN(Cc1ccccc1)C(=O)CSc1nnnn1C	/	0.1
COc1ccc(Cl)cc1NC1=NCC(C)S1 (centres undefined)	-1.32	-0.55
O=C(COc1ccccc1O)N1CCCCC1	-0.82	1.85
COc1ccc2c(c1)OC(O)(C(F)(F)F)CC2=O (centres undefined)	-0.675	1.3
O=c1ccn(Cc2ccccc2)c(=O)[nH]1	0.015	1.45
CC(C)(C)c1[nH]oc(=O)c1N=O	-2.62	-7.35*
CCOC(=O)c1csc2ncc(C#N)c(=O)n12	76.7	2.25
CCOC(=O)c1ccc2c(c1)nc(SCC(=O)NC(C)C(C)C)n2CC (centres undefined)	/	0
Cc1noc(-c2ccccc2O)n1	5.02	0.1

More entries follow:
mol	Ba CapD inh	AID504770
CCOC(=O)C1C(c2ccc(Br)cc2)NC(=S)NC1(O)C(F)(F)F (centres undefined)	-0.47	/
OC(CSc1cccc(C(F)(F)F)c1)CN1CCN(c2ccccc2)CC1 (centres undefined)	-0.09	/
O=c1nc2sc3ccccc3n2c(=O)n1-c1ccc(Cl)cc1	1.26	1.05
C=CCn1c(SCC(=O)NCc2ccccc2Cl)nc2cc(C(=O)NCc3ccco3)ccc2c1=O	1.37	/
Cc1nnc(SCC(=O)N2CCN(c3cccc(Cl)c3)CC2)n1C1CC1	/	-0.25
COc1cccc(-c2cc(C(=O)NC3CCCC3)no2)c1	0.345	-0.55
CNC(=S)N/N=C/c1c(C(=O)OC)cnn1-c1ccc(F)cc1F	-1.52	-1
Cc1nnc(SCc2cn3cc(Br)ccc3n2)n1C	0.12	-1.15

Screens deposited in PubChem by ICCB-Longwood Screening Facility, Harvard Medical School.
